Vaccinia pol inh: vaccinia E9 polymerase processive synthesis inhibitors, primary screen, biochemical, absorbance; normalized absorbance, % (concentration not given with the values); in vitro processive DNA synthesis, absorbance read-out; hits give low values; some inactives read as strong as hits; AID 493162, 2011; Vaccinia virus DNA polymerase (E9) processive complex; actives 0.94% (n = 46,000);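 active means replicate mean up to 90% and picked by the depositor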;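 further: 100% = median of the test wells of a plate; 100 nL library stock went into each well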
An asterisk follows results filed as active. The list is partial; the hit share may differ from the screen's.

`CN1C(=O)[C@]23CC4=CC=C[C@H](O)[C@H]4N2C(=O)[C@@]1(CO)[S+](C)S3` (stereo not given in full) gave Vaccinia pol inh 99.0.
`CCC(=O)Nc1cccc(-c2nc3ccccc3[nH]2)c1` gave Vaccinia pol inh 97.2.
`CS(=O)(=O)c1ccc2nc(NC(=O)c3ccccc3Oc3ccccc3)sc2c1` gave Vaccinia pol inh 96.2.
Screening CC1(C)CC(=O)CC(C2(O)C(=O)N(Cc3ccccc3)c3ccccc32)O1 (stereo not given) returned Vaccinia pol inh 99.8.
Cc1ccc2[nH]c(=O)c3cc(C(=O)N(C)c4cccc(Cl)c4)sc3c2c1 was read as Vaccinia pol inh 96.3.
Screening Clc1ccc(C2=Nc3cccc4cccc(c34)N2)cc1 returned Vaccinia pol inh 100.3.
For CC(C)NC(=O)C[n+]1csc2ccccc21 the results were Vaccinia pol inh 100.6.
Screening CCN(CC)c1ccc(NC(=O)c2cc(=O)c3ccccc3o2)cc1 returned Vaccinia pol inh 100.3.
Screening CC(C)N1CC=C2C(C1)C(c1ccccc1)C(C#N)=C(N)C2(C#N)C#N (stereo not given) returned Vaccinia pol inh 100.5.
For O=C(c1cc(-c2ccc(F)cc2)on1)N1CCCc2ccccc21 the results were Vaccinia pol inh 101.3.
For Cc1cc(OCC[N+]2(C)CCCCC2)nc2ccccc12 the results were Vaccinia pol inh 99.2.
For COc1cccc(N2C(=O)CN=C2Nc2nc(C)cc(C)n2)c1 the results were Vaccinia pol inh 100.1.
`O=C(/C=C/c1cccs1)Nc1nnc(-c2ccccc2)o1` gave Vaccinia pol inh 99.1.
Screening CN(C)c1ccc(NC(=O)Nc2ccccc2)cc1 returned Vaccinia pol inh 86.6.
For O=C1c2cccnc2C(=O)N1Cc1ccc(S(=O)(=O)NC2CCCC2)cc1 the results were Vaccinia pol inh 103.4.
`Cc1ccsc1C(=O)OC(C(=O)c1c[nH]c2ccccc12)c1ccccc1` (stereo not given) gave Vaccinia pol inh 96.8.
For CC(C)(C)N1C(=O)c2ccc(C(=O)Nc3nccs3)cc2C1=O the results were Vaccinia pol inh 98.6.
`COCC(=O)Nc1cc(C)c2c(=O)oc3ccccc3c2n1` gave Vaccinia pol inh 100.6.
CN(CCc1ccc(Cl)c(Cl)c1)CC(O)COc1ccc(NS(C)(=O)=O)cc1 (stereo not given) was read as Vaccinia pol inh 98.5.
Cc1ccccc1C(=O)NC#N was read as Vaccinia pol inh 100.4.
For CCC(=O)Oc1ccc(Br)cc1/C=C1\Sc2ccccc2C1=O the results were Vaccinia pol inh 99.9.
O=C(COc1ccc2oc3c(c2c1)CCCC3)Nc1cccnc1 was read as Vaccinia pol inh 107.5.
`Cc1c(S(=O)(=O)c2ccc(Cl)cc2)csc1C(=O)N(C)c1nnc(C(F)(F)F)s1` gave Vaccinia pol inh 104.6.
For O=C1c2ccccc2C(=O)N1Cc1ccc2[nH]c3c(c2c1)CCCC3 the results were Vaccinia pol inh 97.5.
`CCSc1nc(O)c(C(C)CC)c(=O)[nH]1` (stereo not given) gave Vaccinia pol inh 99.9.
COc1ccc(Nc2ncnc3c2nnn3Cc2ccccc2Cl)c(OC)c1 was read as Vaccinia pol inh 111.9.
`Cc1cccc(CSc2ncn[nH]2)c1` gave Vaccinia pol inh 104.8.
`CC(C)(C)OC(=O)N1CCC(c2nc3c(nnn3Cc3ccccc3Cl)c(=O)[nH]2)CC1` gave Vaccinia pol inh 102.2.
Screening COc1ccccc1N1C(=O)NC(=O)/C(=C\C=C\c2ccco2)C1=O returned Vaccinia pol inh 99.5.
For O=C(c1cc(-c2cccs2)on1)N1CCCc2ccccc21 the results were Vaccinia pol inh 100.2.
CCOc1ccc(-n2c(SCc3ccccc3)nnc2-c2cccnc2)cc1 was read as Vaccinia pol inh 95.0.
CSc1nnc(SC)n1CCNC(=O)Nc1cccc(Cl)c1 was read as Vaccinia pol inh 98.2.
For Cc1ccc(NS(=O)(=O)c2ccc3c(c2)oc(=O)n3C(=O)Oc2ccccc2)cc1 the results were Vaccinia pol inh 100.3.
CC(O)c1cc(-c2ccc(Cl)cc2Cl)no1 (stereo not given) was read as Vaccinia pol inh 99.8.
`N#CC1=C(N)C(C#N)(C#N)C2(C(=O)N(Cc3ccccc3)c3ccccc32)C2CCCC=C12` (stereo not given) gave Vaccinia pol inh 101.0.
Screening CCOC(=O)c1cc(-c2ccccc2)n(-c2ccccc2C)n1 returned Vaccinia pol inh 99.8.
CC1=C(C(=O)Nc2ccccc2F)C(c2ccsc2)C2=C(CC(C)(C)CC2=O)N1 (stereo not given) was read as Vaccinia pol inh 99.5.
CC1=C(C(=O)Nc2ccccc2)C(CC(C)C)n2nc(SCc3cccc(C)c3)nc2N1 (stereo not given) was read as Vaccinia pol inh 102.1.
`CC(C)CCOc1cccc(OCC(=O)NCC(=O)O)c1` gave Vaccinia pol inh 99.9.
Screening CC(C)N(Cc1nc(-c2ccccc2)no1)C(=O)C(C)(C)C returned Vaccinia pol inh 106.5.
For Cc1nc2ccccc2cc1OCc1ccccc1 the results were Vaccinia pol inh 97.8.
For NC(=O)c1ccccc1O the results were Vaccinia pol inh 99.3.
For CC(c1ccccc1)N1C(=O)NC(C(F)(F)F)(C(F)(F)F)C2=C1CC(C)(C)CC2=O (stereo not given) the results were Vaccinia pol inh 102.7.
Screening O=C(O)c1cn(C2CC2)c2cc(N3CCN(C(=S)S)CC3)c(F)cc2c1=O returned Vaccinia pol inh 92.9.
Screening O=C(CN1c2cccc3cccc(c23)S1(=O)=O)NC1CC1 returned Vaccinia pol inh 94.9.
CCC(C)NC(=O)c1cccc2c1C(=O)N(CC1CCCO1)C2 (stereo not given) was read as Vaccinia pol inh 89.0.
Cn1c(=NC(=O)/C=C/c2cccs2)sc2cc(Cl)ccc21 was read as Vaccinia pol inh 100.1.
`C[C@@H]([C@H](O)c1ccccc1)N(C)C` gave Vaccinia pol inh 100.5.
`CCOC(=O)c1nccn1CC(=O)N(C)c1ccccc1` gave Vaccinia pol inh 86.7.
`Cc1ccc(S(=O)(=O)N2CCCCC2C(=O)N2CCCC3CCCCC32)cc1` (stereo not given) gave Vaccinia pol inh 100.0.
Screening CCN1CCSc2ccc(C(=O)NC(C)C)cc21 returned Vaccinia pol inh 95.9.
For c1cn(-c2ccc(-c3nn[nH]n3)cc2)cn1 the results were Vaccinia pol inh 95.4.
Screening Oc1ccc(O)c(Cc2nc3ccccc3s2)c1 returned Vaccinia pol inh 100.3.
`O=C(CSC1=NCCc2ccccc21)c1ccc(-c2ccccc2)cc1` gave Vaccinia pol inh 69.0*.
For CS(=O)(=O)CC(=O)c1ccc(Cl)c(Cl)c1 the results were Vaccinia pol inh 96.5.
Screening COc1cc(C)c(S(=O)(=O)N2CCN(c3cccc(Cl)c3)CC2)cc1C returned Vaccinia pol inh 101.0.
`C=CCOC(=O)OCn1c(=O)sc2ccccc21` gave Vaccinia pol inh 94.4.
`Nn1c(-c2ccccc2)nc2ccccc2c1=O` gave Vaccinia pol inh 92.6.
For Cc1ccc(Oc2ncccc2NC(=O)c2ccc(Cl)cc2Cl)c2c1CCC2 the results were Vaccinia pol inh 97.7.
O=C(Nc1cc(=O)c2ccccc2o1)OCc1ccccc1 was read as Vaccinia pol inh 100.3.
For Cc1ccc(N(CC(O)CN2C(=O)NC(C)(C)C2=O)S(=O)(=O)c2ccccc2)cc1 (stereo not given) the results were Vaccinia pol inh 99.7.
For O=C(OCc1ccccc1)c1ccccn1 the results were Vaccinia pol inh 100.8.
For Cc1oc(C(C)(C)C)cc1C(=O)N1CCN(c2ncccc2C(F)(F)F)CC1 the results were Vaccinia pol inh 98.7.
`NC(=O)c1c(Nc2ccccc2)n[nH]c1N` gave Vaccinia pol inh 103.7.
O=C(O)CCNS(=O)(=O)c1ccccc1C(F)(F)F was read as Vaccinia pol inh 99.7.
O=C1CC2OCC=C3CN4CC[C@]56c7ccccc7N1C5[C@H]2[C@H]3CC46 (stereo not given in full) was read as Vaccinia pol inh 100.4.
Screening CCN(CC)c1nc(C)nc2sc(C(=O)Nc3cc(Cl)ccc3OC)c(C)c12 returned Vaccinia pol inh 110.7.
CC(=O)OCOC(c1cc([N+](=O)[O-])ccc1Oc1ccc(Br)cc1)[P+](=O)OCOC(C)=O (stereo not given) was read as Vaccinia pol inh 99.6.
For O=C(CSc1ncnc2ccccc12)Nc1ccccc1C(F)(F)F the results were Vaccinia pol inh 100.7.
N#Cc1cnn2c(-c3ccc(Cl)c(Cl)c3)ccnc12 was read as Vaccinia pol inh 104.6.
Screening CN1C2CC(OC(=O)[C@H](CO)c3ccccc3)C[C@H]1[C@H]1OC21 (stereo not given in full) returned Vaccinia pol inh 102.3.
For COCCn1c(=NC(=O)c2c(F)cccc2F)sc2cc(OC)ccc21 the results were Vaccinia pol inh 98.1.
`Cc1noc(C)c1CSc1ccc(Br)cc1` gave Vaccinia pol inh 80.7.
Cc1ccc(Cl)c(NC(=O)COC(=O)c2ccncc2)c1Cl was read as Vaccinia pol inh 95.2.
For Cc1cccc(C)c1NC(=O)Cn1c(S(=O)(=O)CC(N)=O)nc2ccccc21 the results were Vaccinia pol inh 95.2.
For Cc1ccccc1NC(=O)CCCn1sc2ccccc2c1=O the results were Vaccinia pol inh 98.9.
Screening CSc1nc(/N=C/N(C)C)n(-c2ccccc2)n1 returned Vaccinia pol inh 95.4.
Screening Cc1cc(NC(=O)COc2ccccc2)no1 returned Vaccinia pol inh 100.5.
Screening CC(=O)N/C(=C\c1ccc(F)cc1)C(=O)N(C)C returned Vaccinia pol inh 100.6.
Screening COc1cc(C(=O)N2Cc3ccccc3CC2C)cc(OC)c1OC (stereo not given) returned Vaccinia pol inh 100.3.
For N#Cc1nc(-c2ccccc2)oc1NCc1ccccc1 the results were Vaccinia pol inh 89.3.
For CC1=CCC(c2cnc(-c3ccccc3)c(C)c2)N(C)C1c1ccccc1 (stereo not given) the results were Vaccinia pol inh 100.9.
O=C(NC1CCN(C(=O)c2ccc(Cl)cc2Cl)CC1)c1ccccc1 was read as Vaccinia pol inh 96.6.
`CN(C(=O)COc1ccc(Oc2ccccc2)cc1)C1CCS(=O)(=O)C1` (stereo not given) gave Vaccinia pol inh 97.1.
For COc1ccc(-c2cc3c(S(=O)(=O)c4ccccc4)cc(NC(=O)c4ccco4)cc3n2C)cc1 the results were Vaccinia pol inh 108.8.
For O=C(CCCN1Cc2ccccc2C1)c1ccc(F)cc1 the results were Vaccinia pol inh 97.9.
Screening O=C(CSc1nc2c(c(=O)n1-c1ccccc1)SCC2)NCc1ccccc1 returned Vaccinia pol inh 100.0.
CCOC(=O)c1sc(NC(=O)COc2ccccc2)c(SC#N)c1C was read as Vaccinia pol inh 98.0.
Screening O=C(OCC(=O)N(C1CCCCC1)C1CCCCC1)c1ccco1 returned Vaccinia pol inh 98.5.
Screening CCOC(=O)C1=C(CN(C)c2ccccc2)NC(=O)NC1c1ccc(C)cc1 (stereo not given) returned Vaccinia pol inh 85.1.
CC(=O)n1c(N)nc2ccccc21 was read as Vaccinia pol inh 101.0.
For CC(=O)Nc1sc2c(c1C(=O)O)CCCC2 the results were Vaccinia pol inh 103.3.
CCC1(O)CC(C(=O)OC)=NN1C(=O)c1ccccc1 (stereo not given) was read as Vaccinia pol inh 99.5.
CC1(C)OC(=O)C(=CNc2ccccc2)C(=O)O1 was read as Vaccinia pol inh 99.8.
For COc1cc(/C=C2/N=C(C)OC2=O)cc(OC)c1OC the results were Vaccinia pol inh 99.0.
COC(=O)c1ccccc1NC(=O)N1CCC(CN2CCc3ccccc3C2)CC1 was read as Vaccinia pol inh 83.8.
Screening Nc1ccc(Oc2ccc3ccccc3c2Cl)c(Cl)c1 returned Vaccinia pol inh 89.4.
Screening CCOc1ccccc1C(=O)NCc1ccc2c(c1)OCO2 returned Vaccinia pol inh 94.3.
`c1ccc(Cc2ccc[n+](Cc3ccccn3)c2)cc1` gave Vaccinia pol inh 99.7.
For NC(=O)CC12CC3CC(C1)CC(C(N)=O)(C3)C2 the results were Vaccinia pol inh 100.8.

3 records drawn at random from those above, as already listed:
For O=C(CCCN1Cc2ccccc2C1)c1ccc(F)cc1 the results were Vaccinia pol inh 97.9.
CCOC(=O)c1sc(NC(=O)COc2ccccc2)c(SC#N)c1C was read as Vaccinia pol inh 98.0.
Screening Nc1ccc(Oc2ccc3ccccc3c2Cl)c(Cl)c1 returned Vaccinia pol inh 89.4.

(list continues)
For O=C(c1csc(-c2ccccc2)n1)N(Cc1ccccn1)Cc1ccccn1 the results were Vaccinia pol inh 74.8.
CC1CN(C(=O)COC(=O)c2ccc3ccccc3c2)CC(C)O1 (stereo not given) was read as Vaccinia pol inh 103.3.
O=C(Cn1cc(/C=C2/C(=O)NC(=O)N(Cc3ccco3)C2=O)c2ccccc21)NCC1CCCO1 (stereo not given) was read as Vaccinia pol inh 99.9.
C=CCn1c(Cc2ccccc2)nc2ccccc21 was read as Vaccinia pol inh 100.7.
For COc1cc2c(C(=O)N3CCCCCC3)cn(C)c(=O)c2cc1OC the results were Vaccinia pol inh 86.2.

Filtered by structure, those above with an NH in an aromatic ring (nine)
`CCC(=O)Nc1cccc(-c2nc3ccccc3[nH]2)c1` gave Vaccinia pol inh 97.2.
Cc1ccc2[nH]c(=O)c3cc(C(=O)N(C)c4cccc(Cl)c4)sc3c2c1 was read as Vaccinia pol inh 96.3.
`Cc1ccsc1C(=O)OC(C(=O)c1c[nH]c2ccccc12)c1ccccc1` (stereo not given) gave Vaccinia pol inh 96.8.
For O=C1c2ccccc2C(=O)N1Cc1ccc2[nH]c3c(c2c1)CCCC3 the results were Vaccinia pol inh 97.5.
`CCSc1nc(O)c(C(C)CC)c(=O)[nH]1` (stereo not given) gave Vaccinia pol inh 99.9.
`Cc1cccc(CSc2ncn[nH]2)c1` gave Vaccinia pol inh 104.8.
`CC(C)(C)OC(=O)N1CCC(c2nc3c(nnn3Cc3ccccc3Cl)c(=O)[nH]2)CC1` gave Vaccinia pol inh 102.2.
For c1cn(-c2ccc(-c3nn[nH]n3)cc2)cn1 the results were Vaccinia pol inh 95.4.
`NC(=O)c1c(Nc2ccccc2)n[nH]c1N` gave Vaccinia pol inh 103.7.

Source: PubChem (ICCB-Longwood Screening Facility, Harvard Medical School)
